Choline anaer gr: blocks anaerobic gram-negative growth on choline; Gram-negative bacterium anaerobic choline minimal medium, absorbance growth; hits give low values; many inactives read as strong as hits in the columns shown; calls only; hit rate 0.2% among 55,000; AID 1963822;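 active = growth z-score on choline under -2 at 7 or 20 h with little or no fall on glycerol, limits in tiers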;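 note: stock transfer was 300 nL into about 50 µL; the organism is E. coli; final concentration not given here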
Choline anaer gr early: second read-out of Choline anaer gr, no call of its own (marks repeat the call); z-score; measured here: choline growth z-score, timepoint 1;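 score of optical density at 7 h as mean of two plates; lower means less growth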
Starred values were filed as active, the others as inactive; i = inactive; & = joins results of further samples. A portion of the library, so the mix of outcomes need not match the whole.

nr	Choline anaer gr early	Choline anaer gr	SMILES
1	-0.04	i	CCC(=O)Nc1cccc(-c2noc(C3CCCN(C(=O)c4cccc(Br)c4)C3)n2)c1 (stereo unspecified)
2	-0.5	i	Cc1ccc(-c2nc(CNC(=O)Nc3cccc(C)c3)c(C)o2)cc1
3	-0.73	i	Fc1ccccc1CNC1=NCCNC12CCCCC2
4	0.99	i	c1ccc(-n2cnnc2C2CCCN(CCN3CCCC3)C2)cc1 (stereo unspecified)
5	0.76	i	CC(C)NC(=O)N1CCCC(c2cccc(C(=O)N3CCN(c4ccccn4)CC3)c2)C1 (stereo unspecified)
6	0.39	i	O=C(c1ccccc1)N1CCc2cc(CNS(=O)(=O)c3ccc(F)cc3)ccc21
7	-0.33	i	Cc1sc(C)c(S(=O)(=O)NCc2ccccc2)c1-c1cc(C(F)(F)F)on1
8	-0.58	i	CC(C)C[C@@H](NC(=O)[C@H](Cc1ccccc1)NC(=O)c1cnccn1)B(O)O
9	-0.69	i	COc1ccc(S(=O)(=O)Nc2c(C)n(C)n(-c3ccccc3)c2=O)cc1C(=O)N1CCCC1
10	-0.95	i	Cc1ccc(CNC(=O)C2CCC(=O)N2C(C)C)cc1 (stereo unspecified)
11	1.3	i	COC(=O)CC1=CC(SCc2ccccc2F)=Nc2ccccc2N1
12	0.17	i	CC1(C)CC(=O)C2=C(C1)Nc1ccccc1NC2c1cccc(F)c1 (stereo unspecified)
13	-0.23	i	O=C(NC1CC1)c1ccc(Nc2cc(-c3ccc(F)cc3)ncn2)cc1
14	1.2	i	Cc1cc(N2CCCC2)nc2ccc(NC(=O)c3ccccn3)cc12
15	0.42	i	Cc1ccc(CC(=O)Nc2ccc3nc(N4CC(C)CC(C)C4)cc(C(=O)O)c3c2)cc1 (stereo unspecified)
16	-0.33	i	c1ccc(N2CCN(Cc3nc4ccccc4[nH]3)CC2)nc1
17	-0.67	i	Cc1ccc(-c2nc(CN3CCCC(C(=O)Nc4ccc(Br)cc4)C3)no2)cc1 (stereo unspecified)
18	-1.3	i	Cc1[nH]nc2c1C(c1ccsc1)CC(=O)N2 (stereo unspecified)
19	-1.9	i	COc1ccc(NC(=O)Nc2nnc(SCC(=O)Nc3ccc4c(c3)OCO4)s2)cc1
20	0.19	i	COCCn1c(CNC(=O)c2ccc(OC)cc2OC)nc2cccnc21
21	0.02	i	CN1CCN(C(=O)c2nc(-c3nn(-c4ccccc4)c(=O)n(C)c3=O)no2)CC1
22	1.4	i	O=c1cc(CSc2nnc3c4ccccc4nc(-c4ccccc4)n23)nc2ccc(Cl)cn12
23	1.4	i	O=C(COc1ccc(F)cc1)NC(c1ccc(F)cc1)c1nnc(-c2ccccc2)o1 (stereo unspecified)
24	1.8	i	O=S(=O)(NC1CCCc2ccccc21)c1cc(-c2noc(C3CCC3)n2)cs1 (stereo unspecified)
25	-0.97	i	Cc1ccc2c(c1)c(-n1cccc1)c1n2CC(C)(C(=O)NC2CCC(C)CC2)N(Cc2ccc(Cl)cc2)C1=O (stereo unspecified)
26	0.25	i	CC1Oc2ccccc2C(=O)N(CC(=O)c2ccc(Br)cc2)C1=O (stereo unspecified)
27	-2.3	i	O=C(CSc1nnc2n(Cc3ccco3)c(=O)c3sccc3n12)NC1CCCC1
28	-2.1	i	Cc1cc(C)c(S(=O)(=O)Nc2ccc(N3CCNCC3)c(C(=O)N3CCOCC3)c2)c(C)c1
29	0.15&-0.86	i	O=C1NC(=O)c2cc(Nc3ccccc3)c(Nc3ccccc3)cc21
30	0.21	i	Cc1ccc2c(c1)OC=CC(C(=O)Nc1ncc(Cc3ccccc3)s1)=C2
31	0.67	i	O=C(C1CCCC1)N1CCC(n2nc(-c3ccccc3)oc2=O)CC1
32	-1.6	i	CC(C)c1ccc(S(=O)(=O)c2cnc(N3CCN(C4CCCCC4)CC3)nc2N)cc1
33	0.95	i	Cc1nn(CC(=O)N2CCC(Cc3ccccc3)CC2)c(=O)c2cc3occc3n12
34	0.97	i	CC(C)OCCCNC(=O)C1c2c(n(C)c3ccccc23)SCC(=O)N1CCC1=CCCCC1 (stereo unspecified)
35	1.4	i	Cc1c(C(=O)N2CCOCC2)nnn1-c1ccc2noc(-c3ccc(Br)cc3)c2c1
36	0.96	i	Cc1cc(C)c2c(n1)SCCN2C(=O)Nc1ccc(F)cc1
37	1	i	Cc1noc(C)c1C1CCCN1C(=O)c1cc(C(F)(F)F)nn1C (stereo unspecified)
38	-2	i	Cc1ccsc1CN1CCCC1c1c(C)noc1C (stereo unspecified)
39	-3	i	COc1c(N2C[C@@H]3CCCN[C@@H]3C2)c(F)cc2c(=O)c(C(=O)O)cn(C3CC3)c12
40	0.91	i	CCCCSc1nnc2n(CCc3ccccc3)c(=O)c3sccc3n12
41	-2.1	i	CCC(=O)N1CCc2cc(N3CC(C(=O)NCC4CC4)CC3=O)ccc21 (stereo unspecified)
42	-0.97	i	Cc1ccccc1-c1nn2c(=O)cc(N3CCN(C(=O)Nc4ccc(Cl)cc4)CC3)nc2s1
43	-0.25	i	CC(C)c1cc(-c2nc(-c3cccnc3)no2)n[nH]1
44	-0.72	i	CCn1c(=O)cc(SCC(=O)N2CCC(C)CC2)c2ccccc21
45	1.4	i	COc1cc(OC)cc(-c2noc(CSc3ccc(-c4cccc(Br)c4)nn3)n2)c1
46	-0.28	i	CC(C)(C)c1ccc(OCC(=O)Nc2noc(-c3ccccc3)n2)cc1
47	0.17	i	CC(C)c1ccc(NC(=O)Cn2cnc3nc(N4CCCCC4)sc3c2=O)cc1
48	-1	i	CC(C)NC(=O)c1cc(-c2ccccn2)nc2ccc(S(=O)(=O)N3CCOCC3)cc12
49	-2.5	i	O=c1ccc(-c2ccc3c(c2)OCO3)nn1Cc1nc(-c2ccc(F)c(Br)c2)no1
50	0.95	i	Cc1onc(-c2ccc(F)cc2)c1C(=O)NC(C)C
51	0.63	i	CCCN(C)Cc1nc2nc(C)cc(N3CCC(C)CC3)n2n1
52	-0.49	i	O=C(NCCn1c(-c2ccc(F)cc2)nc2cccnc21)NCc1ccc(F)cc1
53	-0.13	i	CC(C)c1cc2n(n1)CC(C)(C(=O)NC1CCCCC1)N(c1ccc(Cl)cc1)C2=O (stereo unspecified)
54	0.84	i	NC(=O)C1CCN(C(=O)CCc2nc3sc4c(c3c(=O)[nH]2)CCCCC4)CC1
55	-0.65	i	CCn1c(C)nnc1SCc1nc(-c2ccc(OC)cc2)oc1C
56	0.05	i	O=C(c1ccccc1F)N1CCCN(Cc2noc(-c3ccccc3)n2)CC1
57	-0.72	i	CCCSCCCNC(=O)Cn1c(=O)c(=O)n(Cc2ccc(Cl)cc2)c2ccccc21
58	0.36	i	O=C(c1ccc(Br)cc1)N1CCC2(CC1)Nc1cc(F)ccc1-n1cccc12
59	0.3	i	O=c1[nH]c(=O)c2c3c(sc2[nH]1)CCCC3
60	0.06	i	COc1ccc(-c2cc3c(=O)[nH]nc(SCC(=O)Nc4ccc(C)c(Cl)c4)n3n2)cc1

The results go on.
nr	Choline anaer gr early	Choline anaer gr	SMILES
61	1.6	i	Fc1ccccc1N1CCN(Cc2nc(-c3ccccc3)no2)CC1
62	-0.6	i	Cc1cc(N2CCOCC2)nc2ccc(NC(=O)Nc3ccc4c(c3)OCO4)cc12
63	0.47	i	CC(=O)Oc1ccccc1C(=O)Oc1ccccc1C(=O)O
64	-0.47	i	CC(C)(C)CC(=O)NCCc1csc(-c2ccc(Cl)cc2)n1
65	-0.26	i	O=C(CSc1ncnc2c1sc1cccc(F)c12)NCc1cccnc1
66	0.04	i	COc1ccc(OC)c(S(=O)(=O)Nc2ccc(-c3ccc4cc(C)ccc4n3)cc2)c1
67	1.5	i	COc1ccccc1NC(=O)c1cc2sc3ccccc3c2s1
68	1.8	i	CCCCc1nnc2sc(-c3ccc(N(C)C)cc3)nn12
69	-1	i	COc1ccc(NC(=O)CSc2nnc(NC(=O)NC3CCCCC3)s2)cc1OC
70	0.1	i	Cc1cccc(NC(=O)C(C)Oc2ccc(-c3cnc4ccccc4n3)cc2)c1 (stereo unspecified)
71	-0.33	i	Cc1ccc(-c2cnc(N3CCCC(C(=O)N4CCN(C)CC4)C3)nc2)cc1 (stereo unspecified)
72	-0.42	i	COc1ccc(CN2C(=O)C3CCCCC3C2=O)cc1S(=O)(=O)N(C)C1CCCCC1 (stereo unspecified)
73	-1.3	i	O=C(NCCC1=CCCCC1)C1CCCN(c2ccc3nncn3n2)C1 (stereo unspecified)
74	-0.36	i	Cc1ccc(C)c(N2CCN(C(=O)CCS(=O)(=O)c3ccc4c(c3)CC(=O)N4C)CC2)c1
75	0.6&-0.02&-0.14&-0.27&0.68&0.92	i	NC(N)=NC(=O)c1nc(Cl)c(N)nc1N
76	0.19	i	O=C(CN1C(=O)CSc2ccc(S(=O)(=O)N3CCCC3)cc21)Nc1cccnc1
77	0.44	i	CC(=O)Nc1ccc(NS(=O)(=O)c2cc(-c3cc(C(F)(F)F)on3)sc2C)cc1
78	-1.5	i	Cc1ccc(CSc2nnc3n(CC4CCCO4)c(=O)c4sccc4n23)cc1 (stereo unspecified)
79	-0.42	i	Nc1ccc(N2CCCCC2)cc1C(=O)N1CCCCC1
80	-0.47	i	COc1ccc(OC)c2c1cc1n2CC(C)(C(=O)NC2CCCC2)N(CCN2CCOCC2)C1=O (stereo unspecified)
81	-0.6	i	Cc1cc(C2CCCN2C(=O)c2cc(C(C)C)no2)no1 (stereo unspecified)
82	-0.16	i	O=C(c1ccsc1)N1CCN(S(=O)(=O)c2cc(-c3noc(C4CCC4)n3)cs2)CC1
83	0.4	i	O=C(Nc1nc2c(F)cccc2s1)c1ccc(S(=O)(=O)N2CCc3ccccc3C2)cc1
84	-0.61	i	CCC(C)NC(=O)CN1C(=O)C2CCCCN2c2ccc(S(=O)(=O)N(C)C)cc21 (stereo unspecified)
85	1&1.2	i	O=C(Nc1cccc2c(=O)cc(-c3nn[nH]n3)oc12)c1ccc(OCCCCc2ccccc2)cc1
86	0.08	i	O=C(Nc1cccc(F)c1)C1CCCN(c2ccc3cc(S(=O)(=O)N4CCCCC4)ccc3n2)C1 (stereo unspecified)
87	-2.1	i	COc1ccc(S(=O)(=O)NCCc2sc(-c3ccc(F)cc3)nc2C)cc1F
88	0.27&0.2&0.76	i	CN1C2CCC1CC(OC(=O)C(CO)c1ccccc1)C2 (stereo unspecified)
89	-0.54	i	C#CCOc1ccc(C2CC(=O)Nc3n[nH]c(C)c32)cc1 (stereo unspecified)
90	-0.94	i	Cc1ccc(NS(=O)(=O)c2ccc3c(c2)oc(=O)n3C)c(C)c1
91	0.13	i	O=C(O)c1ccc(-n2nc3oc4ccc(Cl)cc4cc-3c2=O)cc1
92	-0.77	i	Cc1sc(-c2nc(-c3cccc(Cl)c3)no2)cc1S(=O)(=O)N1CCc2ccccc2C1
93	-1.2	i	CCOCCCNC(=O)Cn1c(=O)c(=O)n(C)c2ncccc21
94	0.48	i	COc1ccc(NC(=O)COc2ccccc2)cc1CN1CCn2c(nc3ccccc32)C1
95	1.5	i	COc1ccc(NC(=O)C2CCN(c3cc(=O)n(C)c(=O)n3C)CC2)cc1OC
96	0.74&0.01	i	CC(=O)[C@@]1(O)CC[C@H]2[C@@H]3CCC4=CC(=O)CC[C@]4(C)[C@H]3CC[C@@]21C
97	-0.83	i	CCOc1ccccc1Nc1c(C(=O)N2CCOCC2)cnc2ccccc12
98	0.13	i	COC(=O)C1=CN(C2CC2)c2cc(N3CCSCC3)c(F)cc2S1(=O)=O
99	-1.6	i	CCc1nnc2sc(CCc3c(C)nn(-c4ccccc4)c3C)nn12
100	1.1	i	CCOC(=O)c1cc(CC)sc1NC(=O)CCn1c(=O)oc2ccccc21
101	0.32	i	Cc1ccc(N2C(=O)C(Cc3ccccc3)N=C2N2CCN(C)CC2)cc1C (stereo unspecified)
102	-0.57	i	Cc1ccc(C)c(NC(=O)C2=Cc3ccc(C)cc3OC=C2)c1
103	-0.23	i	NS(=O)(=O)c1ccc(NC(=O)c2c(-c3ccccc3)c(-c3ccccc3)n[nH]c2=O)cc1
104	-0.58	i	O=C(CN1CCN(Cc2ccccc2)C(=O)C1=O)N1CCc2ccccc2C1
105	-0.19	i	CCN1C(=O)CCc2cc(NS(=O)(=O)c3ccc(Br)cc3)ccc21
106	-1.3	i	Cc1nn(C)c2nc(OC(C)C(=O)NCc3ccc4c(c3)OCO4)cc(C(F)(F)F)c12 (stereo unspecified)
107	0.05	i	CCc1ccc(NC(=O)N2CCc3cc(-c4ccc(C(=O)N5CCOCC5)cc4)ccc32)cc1
108	0.78	i	CN(C)c1ccc(CNC(=O)c2ccccc2CN2C(=O)C3CCCN3C(=O)c3ccccc32)cc1 (stereo unspecified)

Source: PubChem (ICCB-Longwood Screening Facility, Harvard Medical School)
